Beta cell apopt = inhibitors of cytokine-induced beta cell apoptosis, primary screen, luminescence | INS-1E cytokine-induced death, ATP luminescence, 48 h; percent of positive-control rescue, neutral wells zero | protection from apoptosis, % (test concentration not listed) | 300,000 tested, 0.8% active;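 active means all replicates at 75% or more, or half of them and the mean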;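 further: 0% = cytokine-treated negative control wells and 100% = positive control rescue; higher means more ATP so stronger rescue from cytokine killing; wells of about 40 µL received 100 nL stock; the first replicate is given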
UCH37 DUB inh = inhibitors of human UCH37 deubiquitinase, primary screen, biochemical, Ub-AMC cleavage, fluorescence; 330,000 tested, 0.33% active; inhibition, % (no concentration beside the values); Ubiquitin carboxyl-terminal hydrolase isozyme L5 (Homo sapiens), Q9Y5K5; AID 588478, 2011; purified proteasome/UCH37;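 active means mean of two replicates above 20%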;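 further: 0% = compound-free wells with enzyme and 100% = wells lacking proteasome; stock transfer was 100 nL into about 20 µL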
Target sequence (Q9Y5K5 whole entry, looked up): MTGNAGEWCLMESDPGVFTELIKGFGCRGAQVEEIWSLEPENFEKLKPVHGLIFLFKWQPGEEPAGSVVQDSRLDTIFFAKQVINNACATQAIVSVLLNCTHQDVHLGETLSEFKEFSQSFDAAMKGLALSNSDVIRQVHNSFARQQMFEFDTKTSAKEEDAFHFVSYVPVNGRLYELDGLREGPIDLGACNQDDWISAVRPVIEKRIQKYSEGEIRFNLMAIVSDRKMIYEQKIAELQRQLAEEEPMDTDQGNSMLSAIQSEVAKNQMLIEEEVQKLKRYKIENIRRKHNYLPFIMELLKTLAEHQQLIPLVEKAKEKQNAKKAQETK
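Material: human UCH37 enzyme supplied as purified proteasome complex. Measure: % inhibition of Ub-AMC cleavage fluorescence. Medium: pH 7.4 Tris-HCl (50 mM) with ovalbumin, ATP-MgCl2, DTT. Times: 30 min preincubation with enzyme, 25 min cleavage at room temperature. Detection: AMC fluorescence intensity at 355/460 nm.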
rRNA inh HTS = reduced GFP signal of wild-type E. coli, primary screen, bacterial rRNA inhibitor project, GFP/RFP fluorescence, OD600, single point | E. coli WT GFP vs humanized-ribosome RFP mutants, 24 h; hits give low values; DMSO median 0, no signal -100 | GFP signal change (wild-type ribosome), % (test concentration not listed) | 350,000 tested, 1.6% active;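 active means significant combined selectivity score with lowered wild-type GFP, culture density cut under 30%, mutant RFP and density less affected; inactive means any of these conditions unmet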; further: one replicate is shown; some compounds called inactive have numbers as strong as hits
Bfl-1 A1 inh = caspase 3/7 activation in MEF A1-2A-BIM cells, primary screen, A1 inhibitor project, cell-based, luminescence, HTS; Caspase-Glo 3/7 luminescence, 3 h; percent of clofoctol response, vehicle zero; caspase activation, % (test concentration not listed); 330,000 tested, 0.066% active;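 active means over half of replicate activation scores above 10%, or exactly half above 10 with the replicate mean above 10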;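 further: wells of about 30 µL received 50 nL stock; many hits fall short of the cut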
T cruzi inh = inhibitors of intracellular T. cruzi growth, primary screen, luminescence, NIH3T3 host cells; T. cruzi beta-gal in NIH3T3, 90 h; inhibition, % (concentration not given with the values); 300,000 tested, 1.4% active;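 active means mean inhibition across valid replicates above about 55%, limit read from the data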;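 further: signal also drops with host cell toxicity which is not excluded here; 0% = plate median of DMSO wells and 100% = zero luminescence signal; higher percent means less beta-gal luminescence so fewer parasites; stock transfer was 50 nL into about 50 µL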
Ecoli growth = E. coli growth inhibition, primary screen, OD600; Escherichia coli growth, 23 h; hits give low values; OD600 absorbance (no concentration beside the values); 330,000 tested, 0.21% active;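 active means OD600 absorbance below the run mean of sample wells minus 3.6 SD, in any replicate, cut at about 0.56 in these data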;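 further: stock transfer was 300 nL into about 60 µL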
FGF22 binding = binders of human FGF22 protein, primary screen, FGF22 synaptogenesis inhibitor project, biophysical, thermal shift, single point; recombinant FGF22 thermal shift, SYPRO orange fluorescence; percent of sucrose octasulfate shift, DMSO zero; Fibroblast growth factor 22 (Homo sapiens), Q9HCT0; calls only at 9.99 µM; 340,000 tested, 1.5% active; AID 651658, 2012;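 active means melting point raised past a set limit in the mean and every replicate; three in four hits are not shown here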
Target sequence (Q9HCT0 whole entry, looked up): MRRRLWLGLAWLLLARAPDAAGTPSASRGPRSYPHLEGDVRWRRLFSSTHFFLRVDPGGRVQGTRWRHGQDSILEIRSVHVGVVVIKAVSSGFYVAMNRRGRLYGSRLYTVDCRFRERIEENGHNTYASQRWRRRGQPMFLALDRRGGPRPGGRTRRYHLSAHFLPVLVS
AF4-AF9 inh = inhibitors of AF4 peptide binding to AF9, primary screen, biochemical, AlphaScreen, biotin-AF4 peptide, FLAG-AF9, single point. AID 651704, 2012. inhibition, % at 10 µM. 350,000 tested, 0.47% active;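 active means every replicate reaching a set inhibition limit, whatever the replicate mean, cut at about 25% in these data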;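 further: 0% = plate neutral control median and 100% = total signal loss; the record names both 10 and 1 µM as test concentration; the first replicate is given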
Target sequence (P42568 whole entry, looked up): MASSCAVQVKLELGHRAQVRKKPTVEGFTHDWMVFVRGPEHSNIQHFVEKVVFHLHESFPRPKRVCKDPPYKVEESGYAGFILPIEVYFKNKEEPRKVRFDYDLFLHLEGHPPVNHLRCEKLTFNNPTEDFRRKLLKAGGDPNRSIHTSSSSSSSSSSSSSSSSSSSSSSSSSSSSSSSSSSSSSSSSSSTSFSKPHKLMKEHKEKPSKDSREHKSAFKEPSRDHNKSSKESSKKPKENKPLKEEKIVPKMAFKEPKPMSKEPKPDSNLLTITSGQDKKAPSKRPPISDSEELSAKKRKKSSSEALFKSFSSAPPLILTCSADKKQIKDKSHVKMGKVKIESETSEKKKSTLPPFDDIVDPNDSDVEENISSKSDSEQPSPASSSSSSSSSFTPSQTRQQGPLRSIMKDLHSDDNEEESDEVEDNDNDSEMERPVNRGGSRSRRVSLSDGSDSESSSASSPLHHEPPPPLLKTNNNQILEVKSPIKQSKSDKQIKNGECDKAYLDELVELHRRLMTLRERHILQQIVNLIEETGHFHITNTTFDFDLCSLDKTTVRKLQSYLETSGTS
rRNA inh HTS OD600 = recorded beside rRNA inh HTS, whose call it bears; OD600 change, %; measured here: OD600 growth;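 optical density of the mix in the first replicate; 0 = DMSO median and -100 = no signal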
rRNA inh HTS RFP = further read-out of rRNA inh HTS, marked with its call; RFP signal change, %; measured here: RFP humanized mutant strains;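 first replicate; 0 = DMSO median and -100 = no signal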
Numbers without * were called inactive; i = inactive; . = no result given. Not all compounds are listed; rates above refer to the full screens.

SMILES | Beta cell apopt | UCH37 DUB inh | rRNA inh HTS | rRNA inh HTS OD600 | rRNA inh HTS RFP | Bfl-1 A1 inh | T cruzi inh | Ecoli growth | FGF22 binding | AF4-AF9 inh
CCOC(=O)C1C2c3ccccc3O[C@@]1(C)N=C1SCC(=O)N12 (stereo partly specified) | -7 | 1.8 | 7 | -3 | 1.9 | 0.9 | -7 | 0.71 | i | -7.5
CC1=C(C(=O)Nc2ccccc2)S(=O)(=O)CCO1 | -16 | 1.9 | . | . | . | 0.6 | 2 | 0.64 | i | 2.5
COc1ccc(Oc2c(C)oc3cc(OC(=O)N(C)C)ccc3c2=O)cc1 | 7 | -0.1 | -11 | -6 | -0.6 | 0.1 | 3 | 0.71 | i | 0.6
Cc1c2cnn(CC(=O)N3CCC4(CC3)OCCO4)c(=O)c2c(C)n1Cc1ccccc1Cl | 4 | -2.2 | 3 | 7 | -2.5 | 0.7 | -4 | 0.64 | i | 2.9
CC(Cc1ccccc1)NC(=O)/C=C/c1ccc(Cl)cc1 (stereo unspecified) | -1 | 3.9 | -10 | -5 | -0.1 | -0.7 | -2 | 0.68 | i | 4.6
Oc1ccc2ccccc2c1CN1CC=C(c2ccccc2)CC1 | -1 | -3.4 | -3 | 3 | -2.4 | -0.8 | -75 | 0.64 | i | -5.1
O=c1c2ccccc2nc(-c2ccco2)n1-c1nccs1 | 0 | -16 | . | . | . | 0.1 | -2 | 0.72 | . | .
COC(=O)C1=C(c2ccc(OCc3ccccc3)cc2)C[C@@H]2CC[C@H]1N2C(=O)NCc1cccc(C(F)(F)F)c1 | -4 | 1.4 | 7 | 1 | -3.9 | 0.2 | . | . | i | 2.8
c1ccc(C2CN3CCC2CC3)cc1 (stereo unspecified) | -6 | 1.9 | 11 | 10 | -0.7 | 0.1 | -13 | 0.64 | i | 2.2
Cc1ccccc1NC(=S)NC(NC(=O)CF)C(Cl)(Cl)Cl (stereo unspecified) | 1 | 2.9 | 3 | -19 | -1.0 | 1.6 | -22 | 0.71 | i | -3.4
N#Cc1ccccc1Cn1cc(C(=O)c2cccs2)c2ccccc21 | 9 | 5.5 | . | . | . | -0.3 | 9 | 0.76 | . | .
COc1ccc(CC(C)NCCC(c2ccccc2)c2ccccc2)cc1 (stereo unspecified) | 3 | 0.8 | -50 | -79 | -20 | 0.2 | 27 | 0.6 | i | 8.1
N#Cc1c(/N=C/c2c(O)n(Cc3ccco3)c(=O)[nH]c2=O)sc2c1CCCC2 | 0 | -12 | . | . | . | 0.3 | 1 | 0.67 | . | .
Cc1cccc(N2C(=O)NC(=O)/C(=C\c3cnn(-c4ccccc4)c3)C2=O)c1 | -15 | 3.4 | . | . | . | -1.2 | -15 | 0.78 | . | .
C=CCn1c(O)c(C(C)=NC2CCN(Cc3ccccc3)CC2)c(=O)[nH]c1=O | -4 | -0.2 | -2 | -3 | -0.6 | -0.1 | -7 | 0.67 | i | -1.0
CCN(CC)CCN=Cc1c(O)n(CCc2ccccc2)c(=O)[nH]c1=O | 8 | 2.9 | . | . | . | -0.2 | 0 | 0.73 | . | .
Oc1ccccc1CN(CCc1ccccc1)Cc1ccccc1 | 3 | 0.3 | -26* | -19* | -9.1* | 0.0 | 14 | 0.66 | i | -8.3
COc1cc(OC)c(OC)cc1/C=C1\C(=O)NC(=O)N(Cc2ccccc2)C1=O | -23 | 2.3 | 13 | 4 | 2.9 | 0.6 | -25 | 0.65 | i | 0.9
CC(=NC1CCN(Cc2ccccc2)CC1)c1c(O)n(C)c(=O)n(C)c1=O | 1 | -1.5 | . | . | . | 1.7 | 1 | 0.69 | . | .
CC(C)CCN1CCN(Cc2c(F)cccc2Cl)CC1CCO (stereo unspecified) | -3 | 3.6 | 17 | 6 | 0.6 | 0.9 | 2 | 0.72 | i | -1.8
C[C@]12CCC3C(CC[C@H]4C[C@@H](O)CC[C@]34C)C1CC[C@@H]2OC(=O)[C@H](N)CCCCN (stereo partly specified) | 9 | 1.6 | . | . | . | -0.2 | . | 0.64 | i | 7.2
CCOP(=O)(Cc1ccc(C(=O)CC)o1)OCC | -1 | -0.1 | 4 | 14 | 1.1 | 0.3 | -28 | 0.61 | i | 0.7
CCN(CC)CCO | -3 | -3.0 | 0 | -1 | -1.6 | -0.1 | . | 0.67 | i | .
O=C(CN1CCOCC1)Nc1ccc(Br)cc1C(=O)c1ccccc1 | -9 | 1.6 | . | . | . | 1.2 | 6 | 0.67 | . | .
c1ccc(CN2CCN(Cc3ccc4c(c3)OCCO4)CC2)cc1 | 0 | 4.8 | . | . | . | -0.4 | 33 | 0.71 | . | .
SMILES | Beta cell apopt | UCH37 DUB inh | rRNA inh HTS | rRNA inh HTS OD600 | rRNA inh HTS RFP | Bfl-1 A1 inh | T cruzi inh | Ecoli growth | FGF22 binding | AF4-AF9 inh
COc1ccc(-c2nc3ccccc3c(=O)n2-c2nccs2)cc1 | 5 | -4.1 | . | . | . | -0.6 | -1 | 0.71 | . | .
COc1ccccc1[As](=O)(O)CC(O)COc1ccc(Cl)cc1Cl (stereo unspecified) | -7 | 0.9 | 2 | -2 | 3.7 | -0.2 | 15 | 0.7 | i | -2.8
COc1ccc(NP2(=O)NCCCN2)cc1 | . | 0.3 | 14 | 17 | 1.2 | . | . | 0.7 | i | 1.6
Cc1cc(C(=O)OCC(=O)Nc2cccc(F)c2)c(C)n1C1CC1 | 2 | 7.4 | -23 | -30 | 9.1 | 0.7 | . | 0.65 | i | 2.9
OC(c1ccncc1)(c1ccc(F)cc1)c1ccc(F)cc1 | -4 | -1.1 | . | . | . | 0.2 | -5 | 0.69 | i | 2.4
CN1CCN(c2cc(N3CCCCCC3)c(F)cc2[N+](=O)[O-])CC1 | -6 | 15 | . | . | . | -0.4 | 13 | 0.68 | . | .
CN1CC=C(c2c[nH]c3ccccc23)CC1 | 0 | 7.3 | 5 | 3 | -2.6 | 0.2 | -8 | 0.75 | i | 1.6
CCCCCCC(=O)N/N=C/c1c(O)n(C2CC2)c(=S)[nH]c1=O | -8 | 9.3 | 2 | 4 | -1.7 | 0.0 | 4 | 0.72 | i | -4.6
CC(=O)c1ccc(OC(NC(=O)c2ccco2)C(Cl)(Cl)Cl)cc1 (stereo unspecified) | 3 | 3.9 | 17 | 15 | 2.8 | 0.1 | -15 | 0.72 | i | 12
COc1cc(/C=C/c2nc3ccccc3c(=O)n2-c2cccc(O)c2)ccc1O | 9 | -48 | 0 | 7 | 5.2 | -0.4 | 6 | 0.69 | i | -0.3
CN1CCN(c2cc(N3CCCC3)c([N+](=O)[O-])cc2F)CC1 | -1 | 9.3 | . | . | . | -1.8 | 33 | 0.72 | . | .
COc1ccc(-n2nc(C(=O)NCC(=O)N3CCC4(CC3)OCCO4)c3ccccc3c2=O)cc1Cl | 0 | 1.8 | -5 | -10 | 5.6 | 0.5 | -2 | 0.66 | i | 4.2
OCCNCCc1c[nH]c2ccc(OCc3ccccc3)cc12 | 0 | 5.3 | 6 | 11 | -0.6 | 0.9 | 4 | 0.67 | i | 19
Cn1c(=O)cc(OCC(=O)N2CCC3(CC2)OCCO3)c2ccccc21 | -3 | 2.9 | 4 | 2 | 4.2 | 0.9 | -8 | 0.69 | . | .
Nc1cc(C(=O)Nc2ccc(Cl)cc2)ccc1N1CC2CC(C1)c1cccc(=O)n1C2 (stereo unspecified) | -3 | -12 | -10 | -3 | 0.3 | 0.3 | -2 | 0.64 | i | 3.9
C#CC1(O)CCC2C3CCC4=C/C(=N/OCC(=O)NCC(=O)NC(C(=O)O)C(C)C)CC[C@]4(C)C3CC[C@@]21C (stereo partly specified) | 8 | . | 2 | 14 | 2.4 | 0.4 | 7 | . | i | -0.2
CN1CCN(c2ccc(C(N)=O)cc2[N+](=O)[O-])CC1 | 2 | 2.2 | . | . | . | -0.6 | 8 | 0.69 | . | .
CC(C)c1onc(C(=O)N2CCC3(CC2)OCCO3)c1[N+](=O)[O-] | 0 | -1.7 | 6 | 3 | 0.4 | -0.2 | 4 | 0.65 | i | -1.0
COC(=O)C1=C(c2cccc(OCc3ccccc3)c2)C[C@@H]2CC[C@H]1N2C(=O)NCc1ccc(Br)cc1 | 0 | 2.1 | 15 | 8 | -1.0 | -0.8 | . | . | i | 0.5
COc1cc(OC)c(OC)cc1CNCCc1ccc2c(c1)OCO2 | . | 6.8 | 12 | 3 | 2.1 | 0.1 | 52 | 0.7 | i | -9.5
FC(F)(F)c1cccc(NC2=NCCCS2)c1 | . | -2.1 | 6 | 7 | 1.8 | -0.3 | 13 | 0.64 | i | -3.9
COc1cccc(N2C(=O)/C(=C/c3ccc(C)o3)C(=O)NC2=S)c1 | -10 | 4.9 | 4 | 6 | 3.0 | 0.5 | -18 | 0.65 | i | -3.4
COc1ccc2ccccc2c1CNCCc1ccccc1 | 10 | 1.4 | 8 | -1 | 1.3 | 0.8 | 11 | 0.63 | i | 2.9

An excerpt of these results, with two lines to a compound:
Results follow in this order: Beta cell apopt	UCH37 DUB inh	rRNA inh HTS	rRNA inh HTS OD600	rRNA inh HTS RFP	Bfl-1 A1 inh	T cruzi inh	Ecoli growth	FGF22 binding	AF4-AF9 inh
> COc1ccccc1[As](=O)(O)CC(O)COc1ccc(Cl)cc1Cl (stereo unspecified)
  -7	0.9	2	-2	3.7	-0.2	15	0.7	i	-2.8
> O=c1c2ccccc2nc(-c2ccco2)n1-c1nccs1
  0	-16	.	.	.	0.1	-2	0.72	.	.
> CCN(CC)CCO
  -3	-3.0	0	-1	-1.6	-0.1	.	0.67	i	.
> C#CC1(O)CCC2C3CCC4=C/C(=N/OCC(=O)NCC(=O)NC(C(=O)O)C(C)C)CC[C@]4(C)C3CC[C@@]21C (stereo partly specified)
  8	.	2	14	2.4	0.4	7	.	i	-0.2

Single records, as listed above:
Record of COc1cc(/C=C/c2nc3ccccc3c(=O)n2-c2cccc(O)c2)ccc1O = Beta cell apopt = 9; UCH37 DUB inh = -48; rRNA inh HTS = 0; rRNA inh HTS OD600 = 7; rRNA inh HTS RFP = 5.2; Bfl-1 A1 inh = -0.4; T cruzi inh = 6; Ecoli growth = 0.69; FGF22 binding = i; AF4-AF9 inh = -0.3
Record of OCCNCCc1c[nH]c2ccc(OCc3ccccc3)cc12 = Beta cell apopt = 0; UCH37 DUB inh = 5.3; rRNA inh HTS = 6; rRNA inh HTS OD600 = 11; rRNA inh HTS RFP = -0.6; Bfl-1 A1 inh = 0.9; T cruzi inh = 4; Ecoli growth = 0.67; FGF22 binding = i; AF4-AF9 inh = 19
